Source: PubChem
GALR2 agonist: GALR2 receptor agonists, primary screen, cell-based. actives 0.48% (n = 140,000). activation, %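 (tested at 5 µM)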. GALR2-expressing cells, agonist activation read-out. AID 803, 2007;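 active = above mean plus 3 SD of all compounds, about 5% in these data, not always enough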;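 also: 0% = vehicle buffer wells and 100% = reference agonist at full effect; tested in CHO reporter cells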
Target sequence (O43603 whole entry, looked up): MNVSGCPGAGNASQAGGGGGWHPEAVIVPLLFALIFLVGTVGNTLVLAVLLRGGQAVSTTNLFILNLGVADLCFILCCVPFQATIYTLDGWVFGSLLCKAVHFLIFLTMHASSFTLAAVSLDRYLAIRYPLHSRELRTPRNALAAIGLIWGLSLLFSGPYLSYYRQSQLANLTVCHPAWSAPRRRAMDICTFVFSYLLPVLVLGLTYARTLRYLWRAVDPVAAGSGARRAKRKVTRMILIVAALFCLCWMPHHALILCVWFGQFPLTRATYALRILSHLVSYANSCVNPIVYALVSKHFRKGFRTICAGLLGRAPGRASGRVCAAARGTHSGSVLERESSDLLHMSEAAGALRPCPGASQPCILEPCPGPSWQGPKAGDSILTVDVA
RGS16-Gao: modulators of RGS16 binding to Galphao, primary screen, biochemical, human proteins, multiplexed bead flow cytometry | AID 1441, 2008 | bead-based flow cytometry RGS16-Galphao binding, fluorescence; actives lie on both sides | binding response (% of control), % at 10 µM | actives 0.38% (n = 220,000) | Regulator of G-protein signaling 16 (Homo sapiens) + Guanine nucleotide-binding protein …;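 active = below 25% or above 175%, edge rows of some plates excepted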;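 also: Galphao activated by GDP with aluminum fluoride before binding; 100% = wells without compound and 0% = beads without RGS; some results beyond the cut were filed as inactive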
Target sequence (O15492 whole entry, looked up): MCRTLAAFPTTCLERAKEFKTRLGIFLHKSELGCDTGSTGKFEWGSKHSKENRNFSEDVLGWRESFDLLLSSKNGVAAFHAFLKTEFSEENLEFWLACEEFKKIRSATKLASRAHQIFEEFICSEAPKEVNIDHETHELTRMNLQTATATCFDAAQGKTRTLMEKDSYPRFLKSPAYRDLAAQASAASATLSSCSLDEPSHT
Target sequence (P09471 whole entry, looked up): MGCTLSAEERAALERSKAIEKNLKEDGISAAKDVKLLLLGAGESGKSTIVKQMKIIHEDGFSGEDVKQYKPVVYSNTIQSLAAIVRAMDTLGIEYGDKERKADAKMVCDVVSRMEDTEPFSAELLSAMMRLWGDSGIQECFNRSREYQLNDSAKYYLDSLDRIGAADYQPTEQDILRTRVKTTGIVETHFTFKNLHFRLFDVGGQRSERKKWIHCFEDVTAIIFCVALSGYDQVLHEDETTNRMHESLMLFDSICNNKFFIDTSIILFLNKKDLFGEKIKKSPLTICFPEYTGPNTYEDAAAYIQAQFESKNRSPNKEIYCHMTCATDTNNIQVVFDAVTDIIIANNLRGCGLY
INS promoter inh: inhibitors of insulin promoter-driven GFP, primary screen, imaging, TRM-6 cells (human fetal islet line), eGFP reporter, cell count; reporter expression induced with tamoxifen; inhibition, % at 2 µM; actives 0.9% (n = 130,000);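 active = inhibition above the mean plus 3 SD, with well images judged a real hit on visual review, cut at about 60% in these data, passing the limit was not always enough; inconclusive = inhibition over the cutoff but images rejected on review; inactive = inhibition not above the cutoff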
PKD1 kinase inh: inhibitors of human PKD1 kinase, biochemical, fluorescence polarization; Serine/threonine-protein kinase D1 (Homo sapiens), Q15139; PKD1 kinase fluorescence polarization assay; inhibition, %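 (about 10 µM by stock and volumes)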; actives 0.056% (n = 200,000);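 active = inhibition of 50% or more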;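 also: controls were vehicle for no effect and a reference inhibitor for full effect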
HSV augment: enhancers of HSV replication in host cells, fold increase, host cell viability; HSV replication augmentation in cells; maximum fold increase; actives 0.005% (n = 220,000); AID 1956, 2009;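 active = peak rise of 1.5-fold or more in the series; inconclusive = self-fluorescent or not available for retest; tested in PC3 cells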;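 also: first round at 10 µM; read as green reporter fluorescence; hits show the peak of a series up to 25 µM; 1 = signal of infected wells without compound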
INS promoter inh cell count: second read-out of INS promoter inh, no call of its own (marks repeat the call); normalized cell count, %; measured here: cell count, toxicity; reference of the scale not given here;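 cells exposed to compound for 48 h; stained nuclei by imaging scaled within each plate; lower means fewer cells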
HSV augment primary fold: further read-out of HSV augment, marked with its call; fold increase; compound at 10 µM; measured here: primary screen fold increase 10 uM; tested in PC3 cells;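 GFP signal in the first replicate; 1 = infected wells without compound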
Numbers without * were called inactive; i = inactive; ? = inconclusive; . = no result given; & = joins results of further samples. Not a hit list; 1.3% or so of the library scored in one or more.

Below each SMILES: GALR2 agonist, RGS16-Gao, INS promoter inh, INS promoter inh cell count, PKD1 kinase inh, HSV augment, HSV augment primary fold
#1 O=S(=O)(Nc1ccccc1)c1ccc(-c2csnn2)cc1
 : ., 100.4, ., ., ., i, 1.03
#2 N#Cc1c(SCc2ccc(Cl)cc2)sc(C(=O)c2ccccc2)c1N
 : -0.3, 167.6, -54.0, 47.7, 0.3, i, 0.95
#3 COc1ccc(-c2cc(-c3cccs3)c(C#N)c(SCC(=O)NCc3ccco3)n2)cc1
 : 2.2, 98.0, -75.4, 6.0, -3.0, i, 0.51
#4 O=C(c1ccc(-c2ccccc2)cc1)C1CCCN(C(=O)c2cncs2)C1 (centres undefined)
 : ., 92.4, 14.3, 118.8, -8.2, i, 0.83
#5 Cc1noc(C)c1CSc1ncnc2sc(C)c(C)c12
 : -1.7, ., -100.0, 155.6, 19.3, i, 0.95
#6 O=C(Nc1cccnc1)c1ccccc1-c1ccccc1
 : ., 106.0, 42.9, 92.2, -7.9, i, 1.07
#7 C/C(CC(=O)N1CCN(C=O)CC1)=N\NC(=O)c1cccc([N+](=O)[O-])c1
 : ., 102.6, ., ., -7.3, i, 1.05
#8 Cc1occc(=O)c1OC(=O)Nc1ccccc1
 : -1.2, 79.5, ., ., -3.1, i, 0.95
#9 O=C(c1ccc(Cl)s1)N1CCN(c2ccccc2)CC1
 : -0.1, 106.0, 42.9, 148.7, -7.5, i, 0.87
#10 COc1ccc(C2=NOC(C(=O)N(C)Cc3ccccc3)C2)cc1 (centres undefined)
 : ., 104.0, ., ., 4.0, i, 1.09
#11 CCOc1ccc(NC(=S)N=Nc2c(O)[nH]c3ccccc23)cc1
 : ., 92.2, ., ., -1.2, i, 0.68
#12 O=C(C1CCN(S(=O)(=O)c2ccccc2F)CC1)N1CCc2ccccc2C1
 : ., 102.1, ., ., 1.5, i, 0.99
#13 CCC(C)C1C(C#N)=C(N)Oc2n[nH]c(C)c21 (centres undefined)
 : -2.1, 96.8, ., ., -11.2, i, 0.87
#14 Cc1ccc([N+](=O)[O-])cc1NC(=O)c1ccccc1
 : ., 101.9, ., ., 2.4, i, 0.93
#15 CCC1(CC)Cc2ccccc2C(CC(=O)N2CCOCC2)=N1
 : 1.2, 104.7, -30.6, 142.6, -4.8, i, 0.71
#16 Cc1ccc(C)c(OCC(=O)Nn2c(C)nc3ccccc3c2=O)c1
 : 0.2, 102.6, -7.7, 159.0, -7.9, i, 0.907
#17 O=C(N/N=C/c1c[nH]c2ccccc12)c1ccn(Cc2ccc(Cl)cc2Cl)n1
 : -2.2, 114.3, ., ., -8.4, ., .
#18 Cc1ccnc(-n2c(C)cc(/C=N/NC(=O)COc3cccc4cccnc34)c2C)c1
 : ., 95.0, ., ., ., i, 0.91
#19 O=C(CSc1nc2ccccc2c(=O)n1-c1ccccc1)NCc1ccco1
 : -1.1, 96.0, ., ., -10.0, i, 0.88
#20 CCN1CCN(C(c2ccc(F)cc2)c2nnnn2Cc2cccs2)CC1 (centres undefined)
 : -2.0, 104.6, -43.8, 117.2, -7.9, i, 0.88
#21 COc1ccc(/C=C/C(=O)c2ccc(NC3=NCCCS3)cc2)cc1OC
 : ., 105.5, -88.9, 124.5, -2.8, i, 0.61
#22 CCOC(=O)COc1cc(Br)c(/C=N/Nc2ccccc2)cc1OC
 : -0.6, 96.1, ., ., -4.4, ., .
#23 Cc1cc(NC(=O)CSc2nnc(-c3ccoc3C)o2)no1
 : -3.7, 104.6, ., ., 0.6, i, 1.2
#24 COc1ccc(NS(=O)(=O)c2cccc(NC(=O)NCCCl)c2)cc1
 : ., 100.0, ., ., -6.8, i, 0.93
#25 CC1NC(=S)N(C2CCCCC2)C1=O (centres undefined)
 : ., 99.5, -7.1, 101.4, -1.9, i, 1.04
#26 COC(=O)c1cccc(NC(=S)Nc2ccc(Cl)c(Cl)c2)c1
 : ., 93.5, ., ., ., i, 0.92
#27 CCOC(=O)c1c(C)c(C(=O)N(C)C2CCCCC2)c(C)n1C
 : -2.1, 100.8, -9.4, 104.9, 1.1, i, 1.03
#28 CCn1c(=N)n(CCOc2ccc(OC)cc2)c2ccccc21
 : -1.9, 101.8, ., ., 5.0, i, 0.95
#29 CCN1C(=O)c2cccc3c(S(=O)(=O)NCC4CCCO4)ccc1c23 (centres undefined)
 : ., 91.1, ., ., ., i, 0.85
#30 CC(=O)N1CCN(c2ccc(NC(=O)c3cccc(OCc4ccccc4)c3)cc2)CC1
 : -0.3, 108.7, -45.5, 40.6, -2.3, i, 0.84
#31 O=C(c1ccccc1F)N1CCN(c2ccccc2F)CC1
 : -0.2, 106.3, ., ., -6.2, i, 0.88
#32 CCOC(=O)c1ccccc1NC(=O)c1ccc(NS(C)(=O)=O)cc1
 : 0.2, 92.8, 9.7, 96.0, -4.4, i, 0.87
#33 O=C(NC(=S)Nc1cc(S(=O)(=O)N2CCOCC2)ccc1O)c1ccco1
 : ., 84.3, ., ., -5.7, i, 0.9
#34 COc1ccc(C(=O)NNC(=O)Cc2ccc(-c3ccccc3)cc2)cc1OC
 : -1.6, 97.6, ., ., -0.2, i, 0.77
#35 Fc1cccc(Nc2ncnc3c2cnn3-c2ccccc2)c1
 : ., 105.1, ., ., ., i, 0.71
#36 Cc1c(N2C(=O)C3C4C=CC(C4)C3C2=O)c(=O)n(-c2ccccc2)n1C (centres undefined)
 : ., 101.2, ., ., ., i, 1.03
#37 O=c1c2ccccc2nc(SCCN2CCOCC2)n1CCc1ccccc1
 : ., 99.6, ., ., -4.5, i, 0.98
#38 Cc1c(C(=O)Nc2ccc(Cc3ccncc3)cc2)cccc1[N+](=O)[O-]
 : -0.1, 103.0, -40.0, 96.5, 8.4, i, 0.7
#39 CCCCOC(=O)C1CN(c2ccccc2)N=C1C(=O)OCC (centres undefined)
 : -1.6, 104.5, -33.3, 112.5, -8.4, i, 1.08
#40 CC(C)C[C@H](NC(=O)c1[nH]cnc1C(=O)N[C@@H](Cc1ccccc1)C(=O)OC(C)(C)C)C(=O)OC(C)(C)C
 : ., 96.4, ., ., ., i, 0.76
#41 COc1cccc(C(O)CC(N)=O)c1 (centres undefined)
 : -0.7, 100.9, ., ., -2.3, i, 0.88
#42 O=C1CC(NNc2ccccc2)C(=O)N1c1ccc(N2CCCCC2)cc1 (centres undefined)
 : ., 98.0, ., ., 5.5, i, 1.03
#43 CCCCN1C(=O)C(O)(CC(=O)c2c(C)coc2C)c2ccccc21 (centres undefined)
 : ., 98.5, -2.3, 90.2, 3.5, i, 0.91
#44 CSc1nc2ccc(Br)cc2[nH]1
 : ., 106.4, ., ., 9.4, i, 0.95
#45 c1ccc2[nH]c(-c3ccncc3)nc2c1
 : ., 85.5&60.0, ., ., -0.4, i, 0.85&1
#46 COc1ccccc1NC(=O)CCSc1nnc(-c2ccc(O)cc2)o1
 : ., 97.2, ., ., -3.3, i, 1.03
#47 Cc1ccc(CC(=O)Nc2nc3c(s2)CCCC3)cc1
 : -1.9, 105.2, 55.2, 60.0, 3.2, i, 0.773
#48 CCn1cc(C(=O)NCC2CCCO2)c(=O)c2cc(S(=O)(=O)N3CCCCC3)ccc21 (centres undefined)
 : -2.3, 78.3, ., ., 8.5, i, 1.01
#49 CCOC(=O)/C(=N\Nc1ccccc1)S(=O)(=O)c1ccccc1
 : -0.1, ., -54.8, 106.1, -1.2, i, 0.99
#50 CCCCSc1nnc(-c2ccc(NC(=O)CC)cc2)n1C
 : -0.2, 111.5, -16.2, 112.0, -9.8, i, 0.81
#51 CCOc1cc(C(=S)N2CCCC2)ccc1OC(=O)Cc1ccc(F)cc1
 : ., 96.8, -17.6, 141.8, 9.7, i, 0.91
#52 Nc1c(C(=O)Nc2nccs2)sc2nc(-c3cccs3)cc(C(F)(F)F)c12
 : -1.0, 120.7, -181.7, 59.1, -9.0, ., .
#53 Cc1ccc(NC(NC(=O)c2cccs2)C(Cl)(Cl)Cl)cc1 (centres undefined)
 : -2.6, 92.4, 20.0, 80.1, -6.5, i, 0.95
#54 CCC(C)(C)NC(=O)C(c1ccccc1)N(C(=O)c1csnn1)C1CC1 (centres undefined)
 : -3.6, 111.5, -19.4, 97.9, -6.7, i, 1.01
#55 O=C(Nc1c(F)cccc1F)c1ccc(-n2cncn2)nc1
 : -1.1, 106.5, 3.3, 61.1, -2.6, i, 0.98
#56 CN(C)c1ccc(/C=C2\CCC/C(=C\c3ccccc3)C2=O)cc1
 : -2.1, 83.7, -120.4, 121.0, -6.5, ?, .
#57 CCN(CC)CCCNC(=O)Cn1cnc2sc(C)c(S(=O)(=O)N3CCN(c4ncccn4)CC3)c2c1=O
 : ., 105.2, -10.0, 68.0, 3.4, i, 0.94
#58 Cn1c(-c2csc(-c3ccccc3)n2)n[nH]c1=S
 : ., 95.2, ., ., 2.7, i, 0.99
#59 COC(=O)Nc1nnc(CC(=O)Nc2ccccc2C)s1
 : -1.4, 98.8, -368.8, 31.6, -17.3, i, 1.06
#60 COc1ccc(C(=O)COC(=O)Cn2nnc3ccccc32)cc1Br
 : -1.8, 100.0, 3.2, 154.2, -8.8, i, 1.09

Following part:
Below each SMILES: GALR2 agonist, RGS16-Gao, INS promoter inh, INS promoter inh cell count, PKD1 kinase inh, HSV augment, HSV augment primary fold
#61 Cc1nnc(N2CCOCC2)c2nn(-c3cccc(Cl)c3)c(C)c12
 : 0.4, 110.6, -233.3, 81.3, -0.7, i, 1.06
#62 CCOC(=O)N1CCN(c2c(F)cc3[nH]c(=S)[nH]c3c2Br)CC1
 : 0.3, 99.7, -15.4, 97.3, -1.5, i, 0.62
#63 COC(=O)c1c(-c2ccc(C(C)(C)C)cc2)csc1NC(=O)C1C2CCC(O2)C1C(=O)O (centres undefined)
 : -0.2, 5.6*, 35.5, 131.0, 2.0, i, 0.89
#64 O=C(Oc1cc2oc(=O)cc(-c3ccccc3)c2cc1Cl)C1CCCCC1
 : 1.0, 116.1, 32.3, 127.2, -13.1, i, 0.96
#65 O=C(O)Cc1ccc(C(=O)c2cccs2)s1
 : -0.5, 80.2, -31.0, 77.4, -4.7, i, 1.18
#66 O=C(OCC(=O)C12CC3CC(CC(C3)C1)C2)c1cccnc1Cl
 : -1.3, 101.1, -67.9, 58.7, -12.5, i, 0.9
#67 COC(=O)Cn1c(=O)sc2ccccc21
 : -2.1, 94.3, ., ., -2.2, i, 0.89
#68 COc1nc(C)ccc1-c1noc(-c2cccs2)n1
 : ., 101.2, ., ., ., i, 0.91
#69 C/C(=N/NC(=O)c1cccs1)c1cccs1
 : ., 97.4, ., ., ., i, 0.88
#70 COc1cccc(C(=O)Nc2nc3c(c(=O)[nH]2)CCCC3)c1
 : -1.4, 98.6, -150.0, 104.2, -2.9, i, 0.96
#71 CC1CN(Cc2nc3c(c(=O)n(C)c(=O)n3C)n2CC(=O)c2ccccc2)CC(C)O1 (centres undefined)
 : -0.8, 102.5, 62.5, 82.8, 9.5, i, 0.92
#72 O=C(NC1CC1)c1ccc2c(c1)ncn2C1CCCC1
 : -1.8, 99.5, -23.1, 86.5, 3.1, i, 1.1
#73 CCC(C)(C)n1nnnc1C(c1cccnc1)N1CCCc2ccccc21 (centres undefined)
 : 0.7, 92.7, ., ., 7.3, i, 0.88
#74 CCN1C(=O)c2ccccc2S(=O)c2ccc(C(=O)NC3CC3)cc21 (centres undefined)
 : -2.1, 123.9, ., ., -5.0, i, 0.93
#75 CCOC(=O)c1c(NC(=O)COC(=O)Cn2cnc3ccccc32)sc2c1CCC(C)C2 (centres undefined)
 : 1.4, 62.0, 53.3, 88.9, -0.7, i, 0.94
#76 O=C(NC1CCCC1)c1ccc(Br)s1
 : -3.0, 116.0, ., ., -3.1, i, 0.96
#77 CCCCCCCCn1ccc(=N)cc1
 : ., 102.5, ., ., ., i, 0.92
#78 NNC(=O)c1cc(Br)cs1
 : -0.6, 101.7, 8.3, 59.6, 0.9, i, 0.85
#79 O=C(NCc1ccco1)C1CCCN(S(=O)(=O)c2cccc3nsnc23)C1 (centres undefined)
 : -1.9, 99.2, 12.5, 91.9, -1.7, i, 0.89
